# Screening results from PubChem.
# VDR inhibitor – inhibitors of human vitamin D receptor. Potency, µM, without a hit: max response, negative = inhibition, actives largely listed as inhibitors. 400,000 tested, 0.93% active. P11473. VDR-SRC2-3 peptide fluorescence polarization, 2 h; active = well fitted inhibition curve with a large enough effect; inconclusive = small, poorly fitted or top-dose-only effect, or another doubt; inactive = no such curve, though single readings can be large or run the other way; note: series mostly up to about 120 µM
# Target sequence (P11473 whole entry, looked up): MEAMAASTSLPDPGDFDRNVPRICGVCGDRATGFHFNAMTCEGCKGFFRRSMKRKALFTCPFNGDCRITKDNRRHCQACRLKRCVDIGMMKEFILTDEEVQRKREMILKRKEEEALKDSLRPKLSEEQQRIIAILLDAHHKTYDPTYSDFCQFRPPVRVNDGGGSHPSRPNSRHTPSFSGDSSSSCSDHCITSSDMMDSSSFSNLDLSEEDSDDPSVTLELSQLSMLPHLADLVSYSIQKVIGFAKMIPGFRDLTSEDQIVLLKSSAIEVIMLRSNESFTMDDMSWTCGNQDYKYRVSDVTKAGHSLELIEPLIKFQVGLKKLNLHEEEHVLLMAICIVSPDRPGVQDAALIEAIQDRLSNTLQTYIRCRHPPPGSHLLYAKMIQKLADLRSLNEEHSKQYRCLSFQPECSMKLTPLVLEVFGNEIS
#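 Compounds are added to VDR with labelled SRC2-3 coactivator peptide and held 2 h at room temperature. Inhibition of the VDR–peptide interaction is then read as a change in fluorescence polarization.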
# The depositor's hits bear a star; ? = inconclusive; & = joins results of further samples; [ ] = another dose, or the depositor's remark. % is set by controls: 0 for no effect and ±100 for the full control effect; potency is the fitted concentration of half-maximal effect.
VDR inhibitor | compound
-6.4% | Cc1ccc(NC(=O)CCNC(=O)c2ccc(Cl)cc2)cc1C
5.5% | CCOC(=O)Cc1ccc(NC(=O)N2CCSc3ccccc32)cc1
-7.9% | Cc1cc(C)n(S(=O)(=O)c2ccc(F)cc2)n1
-4.2% | COc1cc(C(=O)Nc2ccc(NC(=O)C3CCCCC3)nc2)cc(OC)c1OC
-2.9% | CCN(CC(=O)NC(C)C)C(=O)[C@@H](NC(=O)c1ccco1)C(C)C
18.0% | O=C(COC(=O)c1ccc(-c2ccc([N+](=O)[O-])cc2)o1)NC(=O)NC12CC3CC(CC(C3)C1)C2
-9.7% | O=[N+]([O-])c1ccccc1/C=N/N1CCN(c2ccccn2)CC1
? | O=c1[nH]c2ccccc2cc1-c1nnn(-c2ccccc2)n1
-8.5% | COCCCn1c(SCC(=O)Nc2ccc(C(C)=O)cc2)nc2ccccc2c1=O
-5.1% | Clc1cccc(Cl)c1CSc1nnc(/C=C/c2ccccc2)o1
-2.4% | Cc1ccc(/C=C/C(=O)Nc2ccncc2)o1
13.8% | O=C(CNC(=O)c1ccc2ccccc2c1)NCc1ccccc1F

# Later entries:
VDR inhibitor | compound
0.4% | O=C(Nc1ccccc1Cl)C1CCN(c2nc3ccccc3[nH]2)CC1
-15.2% | COc1cc(Br)c(C2CC(=O)Nc3cc(OC)c(OC)c(OC)c32)cc1OC (stereo unspecified)
-0.6%&2.4% | COc1cccc(N2CCN(C(=O)CCS(=O)(=O)c3ccc4c(c3)oc(=O)n4C)CC2)c1
-17.5% | Cc1ccc(CN(C)C(=O)C2CCN(C(=O)Nc3ccccc3)CC2)o1
13.7% | Cc1cc(C)cc(NC(=O)CSc2cc(C(=O)c3nccn3C)c3ccccc3n2)c1
7.0% | O=C(C[n+]1cc(-c2ccc(Cl)cc2)n2c1CCCCC2)c1ccccc1
3.98µM* | C=C[C@@H](C1=CC(=O)C(OC)=C(OC)C1=O)c1ccccc1
-1.9% | N#Cc1ccc(CN2CCN(CC(=O)NCCc3ccc(Cl)cc3Cl)CC2)cc1
-3.8% | CC(=O)Nc1cccc(NC(=S)Nc2ccc(F)c(Cl)c2)c1
7.4% | Cc1ccc(C)c(NC(=O)COC(=O)c2cc(=O)c3ccccc3o2)c1
21.5% | Cc1ccc(OS(=O)(=O)c2cn(C)c(=O)n(C)c2=O)cc1C
-9.3% | CCOc1ccc(CN2C(=O)c3ccccc3Sc3ccc(C(=O)NCc4ccc5c(c4)OCO5)cc32)cc1

# Next part, overlapping the part above by two compounds.
VDR inhibitor | compound
21.5% | Cc1ccc(OS(=O)(=O)c2cn(C)c(=O)n(C)c2=O)cc1C
-9.3% | CCOc1ccc(CN2C(=O)c3ccccc3Sc3ccc(C(=O)NCc4ccc5c(c4)OCO5)cc32)cc1
-5.4% | CC(NC(=O)CN1CCOCC1)c1ccccc1 (stereo unspecified)
9.3% | Cc1nnc(SCC(=O)Nc2nccs2)n1N
10.5% | CC1CN(S(=O)(=O)c2cccc(C(=O)Nc3ccccc3N3CCOCC3)c2)CC(C)O1 (stereo unspecified)
-1.4% | COc1cc(SC)ccc1C(=O)N1CCc2ccccc21
-1.3%&19.3% | CCN1C(=O)c2ccccc2Sc2ccc(C(=O)NCCCN(CC(C)C)CC(C)C)cc21
-12.6% | COc1ccc(OCCCn2c(CCNC(=O)C3CCCCC3)nc3ccccc32)cc1
11.8% | O=C(Cc1coc2cc3c(cc12)CCC3)NC1CCCCCCC1
12.2% | COc1ccccc1-c1noc(-c2ccc(NC3CCCC3)c([N+](=O)[O-])c2)n1
3.8% | CCSc1nnc(NC(=O)c2ccccc2)s1
11.3% | CCOc1ccccc1CN1CCNC(=O)C1CC(=O)NC1CCCCCCC1 (stereo unspecified)
-1.4% | Cc1ccc(SCc2[nH]nc3c2C2(C(=O)Nc4ccc(F)cc42)C(C#N)=C(N)O3)cc1 (stereo unspecified)
7.6% | Cc1cc(C(F)(F)F)nn1CC(=O)Nc1cccnc1

# Additional compounds.
VDR inhibitor | compound
-29.4% | CCCCOC(=O)c1ccc(S(N)(=O)=O)o1
19.0% | CCC(C)C(NC(=O)C1CCC(C)CC1)C(=O)NCc1ccco1 (stereo unspecified)
-3.4% | O=C(Oc1ccc(Cl)c2cccnc12)c1ccco1
-5.9% | COc1ccc(N=CC2CCCCC2=O)c([N+](=O)[O-])c1 (stereo unspecified)
-22.2%&-1.6% | NC(=O)CCCCn1ccc(NC(N)=NCC(F)(F)F)n1
8.3% | CCc1noc(C)c1C(=O)Oc1ccc(N(C)S(=O)(=O)c2ccc(C)cc2)cc1
-12.7% | CC(C)OCCCNC(=O)Cn1nc(-c2ccccc2)ccc1=O
-23.7% | COc1ccc([N+](=O)[O-])cc1NC(=O)Cc1c(Cl)cccc1Cl
20.0% | CC(C(=O)NC1CCCc2ccccc21)N1C(=O)C2CCCCC2C1=O (stereo unspecified)
-13.7% | O=C(c1ccc(Cn2c(=S)[nH]c3ccccc3c2=O)cc1)N1CCN(c2ccccn2)CC1
-13.0% | CCOC(=O)c1ccccc1-c1csc(NS(=O)(=O)c2ccc(Cl)cc2)n1
-8.5% | NS(=O)(=O)c1ccc(CNS(=O)(=O)c2cc(Cl)ccc2Cl)cc1

# Further records:
VDR inhibitor | compound
1.1% | COc1ccc(S(=O)(=O)N2CCN(CC(=O)Nc3ccccc3OC)CC2)cc1
-4.0% | CC(C)C[C@@H](CC(=O)N[C@@H](CCCN)CC(=O)N[C@@H]1CCNC[C@H]1C(=O)N[C@H](CC(=O)N[C@@H](CCC(=O)O)CC(=O)O)Cc1c[nH]c2ccccc12)NC(=O)[C@@H]1CCCC[C@H]1N
-24.0% | O=C(N=Nc1c(O)[nH]c2ccc(Br)cc12)c1cc(-c2cccs2)nc2ccccc12
14.2% | CNC(=S)NC1CC2CCCC(C1)N2Cc1ccc(C)cc1 (stereo unspecified)
9.2% | CN(Cc1ccnc2ccccc12)C(=O)C1CCC(=O)N(Cc2ccccc2F)C1 (stereo unspecified)
-20.6% | CCOc1ccc(/C=N/NC(=O)c2ccc(O)cc2)cc1CN1CC2CC(C1)c1cccc(=O)n1C2 (stereo unspecified)
7.7% | Cc1n[nH]c(=O)n1-c1cccc(C(F)(F)F)c1
-13.6% | CCCN(CCC)CCNC(=O)C1CCN(Cc2nc(-c3ccc(Cl)cc3)oc2C)CC1
3.1% | COc1ccc(CNc2nc3c(S(=O)(=O)c4ccccc4)nnn3c3ccc(Cl)cc23)cc1
-11.1% | O=C1CC(C(F)(F)C(F)(F)C(F)(F)C(F)F)=Nc2ccccc2N1
-0.9% | COc1ccc(C(=O)NCC(=O)c2ccccc2)cc1
-7.5% | Cc1ccccc1C(=O)NCC(=O)O

# (cont.)
VDR inhibitor | compound
10.3% | CC(=O)c1ccc(NC(=O)Nc2ccccc2)cc1
-2.9% | CCc1ccc(S(=O)(=O)NCc2cn3ccsc3n2)s1
-18.9% | Cc1ccc(C)c(S(=O)(=O)N2CCNCC2)c1
6.8% | Cc1cc(=O)[nH]c(N/N=C/c2cc(C)n(CC(F)(F)F)c2C)n1
24.9% | CN(C)c1ccc(C2Nc3cccc4cccc(c34)N2)cc1
-20.6% | COc1cc2ncnc(NCc3ccc(Cl)cc3)c2cc1OC
2.4% | Cc1ccc(C)c(CNC(=O)c2ccc3c(c2)nc2n3CCCCC2)c1
0.8% | COc1cccc(CN2CCC(Oc3ccc(C(=O)N4CCCCC4)cc3)CC2)c1O
-7.8% | CC(NC(=O)c1ccccc1F)c1nnc(SCc2nc3ccccc3c(=O)[nH]2)n1C (stereo unspecified)
9.4% | COc1ccc(CSc2nnnn2-c2ccc(C(N)=O)cc2)cc1[N+](=O)[O-]
-9.7% | Cc1ccc(C)c(N2CCN(C3CCCC(C)C3)CC2)c1 (stereo unspecified)
7.8% | COc1ccc(CCNC(=O)C(C)OC(=O)c2ccco2)cc1OC (stereo unspecified)

# Following part:
VDR inhibitor | compound
17.3% | CCn1c(SCC(=O)NCC2CCCO2)nnc1-c1ccccc1 (stereo unspecified)
? | CN(C)c1ccc(N=Cc2cccn2C)cc1
11.5% | COc1ccc(OC)c(CNC(=O)c2nn(C)c3c2CSc2ccccc2-3)c1
0.4% | COc1ccc(/C=N/NC(=O)c2cccc([N+](=O)[O-])c2)cc1O
-2.3% | COc1ccc(C(=O)NCc2nnc(SCC(=O)N3CCCc4ccccc43)o2)cc1OC
-12.8% | Cc1ccc(S(=O)(=O)N2CCN(C(=O)COC(=O)CCc3ccccc3)CC2)c(C)c1
10.0% | Cc1cc(=O)oc(C)c1C(=O)Nc1cccc2ccccc12
-13.0% | Nc1nnc(/C=C/c2cccc([N+](=O)[O-])c2)s1
-7.3% | COC(=O)CN1C(=O)[C@H]2[C@@H](c3ccc(C)o3)N3C(=O)CN(Cc4ccccn4)C(=O)[C@@]3(Cc3ccccc3)[C@H]2C1=O
-4.9% | Cc1ccc2cc(C(c3nnnn3C3CCCC3)N(Cc3ccco3)Cc3cccs3)c(=O)[nH]c2c1 (stereo unspecified)
5.5% | CC(/C=N/NC(=O)c1cc(C(C)(C)C)[nH]n1)=C\c1ccccc1
-22.9% | CCOc1ccc(C(=O)N/N=C/c2cc(Cl)ccc2[N+](=O)[O-])cc1

# A different layout for some results above.
Structure	VDR inhibitor
CNC(=S)NC1CC2CCCC(C1)N2Cc1ccc(C)cc1 (stereo unspecified)	14.2%
CN(Cc1ccnc2ccccc12)C(=O)C1CCC(=O)N(Cc2ccccc2F)C1 (stereo unspecified)	9.2%
CCOc1ccc(/C=N/NC(=O)c2ccc(O)cc2)cc1CN1CC2CC(C1)c1cccc(=O)n1C2 (stereo unspecified)	-20.6%
Cc1n[nH]c(=O)n1-c1cccc(C(F)(F)F)c1	7.7%
CCCN(CCC)CCNC(=O)C1CCN(Cc2nc(-c3ccc(Cl)cc3)oc2C)CC1	-13.6%
COc1ccc(CNc2nc3c(S(=O)(=O)c4ccccc4)nnn3c3ccc(Cl)cc23)cc1	3.1%
O=C1CC(C(F)(F)C(F)(F)C(F)(F)C(F)F)=Nc2ccccc2N1	-11.1%
COc1ccc(C(=O)NCC(=O)c2ccccc2)cc1	-0.9%
Cc1ccccc1C(=O)NCC(=O)O	-7.5%
CC(=O)c1ccc(NC(=O)Nc2ccccc2)cc1	10.3%
CCc1ccc(S(=O)(=O)NCc2cn3ccsc3n2)s1	-2.9%
Cc1ccc(C)c(S(=O)(=O)N2CCNCC2)c1	-18.9%
Cc1cc(=O)[nH]c(N/N=C/c2cc(C)n(CC(F)(F)F)c2C)n1	6.8%
CN(C)c1ccc(C2Nc3cccc4cccc(c34)N2)cc1	24.9%
COc1cc2ncnc(NCc3ccc(Cl)cc3)c2cc1OC	-20.6%
Cc1ccc(C)c(CNC(=O)c2ccc3c(c2)nc2n3CCCCC2)c1	2.4%
COc1cccc(CN2CCC(Oc3ccc(C(=O)N4CCCCC4)cc3)CC2)c1O	0.8%
CC(NC(=O)c1ccccc1F)c1nnc(SCc2nc3ccccc3c(=O)[nH]2)n1C (stereo unspecified)	-7.8%
COc1ccc(CSc2nnnn2-c2ccc(C(N)=O)cc2)cc1[N+](=O)[O-]	9.4%
Cc1ccc(C)c(N2CCN(C3CCCC(C)C3)CC2)c1 (stereo unspecified)	-9.7%
COc1ccc(CCNC(=O)C(C)OC(=O)c2ccco2)cc1OC (stereo unspecified)	7.8%
CCn1c(SCC(=O)NCC2CCCO2)nnc1-c1ccccc1 (stereo unspecified)	17.3%
CN(C)c1ccc(N=Cc2cccn2C)cc1	?
COc1ccc(OC)c(CNC(=O)c2nn(C)c3c2CSc2ccccc2-3)c1	11.5%
COc1ccc(/C=N/NC(=O)c2cccc([N+](=O)[O-])c2)cc1O	0.4%
COc1ccc(C(=O)NCc2nnc(SCC(=O)N3CCCc4ccccc43)o2)cc1OC	-2.3%
Cc1ccc(S(=O)(=O)N2CCN(C(=O)COC(=O)CCc3ccccc3)CC2)c(C)c1	-12.8%
Cc1cc(=O)oc(C)c1C(=O)Nc1cccc2ccccc12	10.0%
Nc1nnc(/C=C/c2cccc([N+](=O)[O-])c2)s1	-13.0%
COC(=O)CN1C(=O)[C@H]2[C@@H](c3ccc(C)o3)N3C(=O)CN(Cc4ccccn4)C(=O)[C@@]3(Cc3ccccc3)[C@H]2C1=O	-7.3%

# (next part)
VDR inhibitor | compound
10.7% | COCC1CCN(Cc2nc(COc3ccccc3)no2)C1 (stereo unspecified)
-16.1% | Cc1ccccc1N/C(=N/S(=O)(=O)c1ccccc1)c1ccc(F)cc1
2.7% | CC(=O)N1CCc2cc(CNS(=O)(=O)c3ccc(C(C)(C)C)cc3)ccc21
-9.6%&-9.5%&4.3% | CNS(=O)(=O)Cc1ccc2[nH]cc(CCN(C)C)c2c1
4.7% | Cc1ccccc1C(=O)Nc1ccccc1OCc1cc(=O)n2ccccc2n1
79.4µM* | COc1ccc(/C=N/NC(=O)COc2ccc3ccccc3c2)c(C(=O)O)c1OC
-0.3% | O=C(COC(=O)c1cccnc1Cl)Nc1nc(-c2ccccc2)cs1
1.2% | O=C(CCN1C(=O)C2C3CCC(C3)C2C1=O)Nc1ccc(F)cc1 (stereo unspecified)
5.2% | NC(=O)c1ccc(C(F)(F)F)n(Cc2c(Cl)cccc2Cl)c1=O
4.4% | Cc1sc2nc(C3CCCCC3)nc(SCC(=O)N3CC(=O)Nc4ccccc43)c2c1C
5.2% | C/C(=N\NC(=O)CNc1cccc(C(F)(F)F)c1)c1cccc(Br)c1
4.5% | COCC(=O)NC(C)c1nc2ccccc2[nH]1 (stereo unspecified)

# Later entries:
VDR inhibitor | compound
-12.6% | CCOC(=O)c1cnc2ccc(OCC)cc2c1N1CCN(c2cccc(Cl)c2)CC1
-5.8% | O=C1CC(c2ccccc2)CC(O)=C1C=NC1CCCCC1 (stereo unspecified)
7.6% | Cc1ccc(NC(=O)COC(=O)CCc2c(C)nc3ncnn3c2C)cc1
30.8%[activator] | COCCCN1C(=O)C(=O)/C(=C(/O)c2ccc(S(=O)(=O)N3CCCCC3)cc2)C1c1ccc(O)cc1 (stereo unspecified)
2.7% | Cc1cccc(NC(=O)COC(=O)C2COc3ccccc3O2)c1C (stereo unspecified)
12.5% | COc1ccccc1NS(=O)(=O)c1ccc(C(=O)N2CCN(c3ccccc3)CC2)cc1

# This is a subset, so the mix of outcomes need not match the whole.
